Bioassay records from PubChem.
KSHV LANA nucl: inhibitors of KSHV LANA-nucleosome binding, primary screen, biochemical, fluorescence polarization, FITC-LANA1-23, chicken nucleosomes; FITC-LANA1-23 / chicken nucleosome fluorescence polarization; stronger effect = lower value; z-score (no concentration beside the values); hit rate 0.3% among 51,000; AID 720717, 2013;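 active = both repeat wells score below -2 in polarization z-score versus plate sample wells, excluding overly bright wells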;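 note: 100 nL library stock added to about 30 µL; numbers are from one replicate; some results filed as inactive read as strong as hits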
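Assay system: FITC-LANA peptide and chicken nucleosomes; input: 240 nM purified chicken nucleosomes (480 nM peptide binding sites), final; also added: 50 nM FITC-LANA1-23 probe; medium: TEN-BT buffer, pH 7.5; doses: pin-transferred compound, 100 nL; times: 10–45 min, room temperature; technique: fluorescence polarization; replication: duplicates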
BasE inh: BasE siderophore enzyme inhibitors, primary screen, biochemical, Acinetobacter baumannii ATCC 17978, fluorescence polarization | purified BasE, fluorescence polarization binding displacement | inhibition, % (no concentration beside the values) | hit rate 0.1% among 84,000 | AID 485350, 2010;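 active = both replicates above 25% with normal brightness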;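 note: 0% = negative plate control signal and 100% = positive plate control signal; stock transfer was 100 nL into about 30 µL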
An asterisk follows results filed as active; / = no result given.

compound | BasE inh | KSHV LANA nucl
Cc1cc(-n2c(C)cc(C(=O)CSc3ccc(S(=O)(=O)N(C)C)cn3)c2C)no1 | 3.8 | /
Cc1cccc(NC(=O)CN2N=NC3C(=O)N(c4cccc(Cl)c4)C(=O)C32)c1C (stereo not given) | 4.1 | 0.068
Cc1nn(-c2ccccc2)c2nc(-c3cccs3)cc(C(=O)OCC(=O)N3CCCC3)c12 | 1.0 | /
CN(C)S(=O)(=O)c1ccc(Nc2nc3ccccc3n3nnnc23)cc1 | -0.1 | 0.35
O=C1COc2ccccc2N1Cc1ccc(OC(F)(F)F)cc1 | 0.6 | -1.2
Cc1cccn2cc(-c3cccc(NS(=O)(=O)c4ccc(Cl)cc4)c3)nc12 | 1.6 | /
CN(c1ccc(Br)cc1)c1ncnc2c1nc1n2CCCCC1 | 1.2 | -0.34
NS(=O)(=O)c1ccc(CCNc2ncnc3c2cnn3-c2ccc(F)cc2)cc1 | -3.3 | 0.055
CN1c2ccccc2Oc2nnc(N3CCN(Cc4ccccc4)CC3)cc21 | 1.1 | 0.083
COCCNC(=O)CN1CCC(c2nc3ccccc3s2)CC1 | -1.6 | /
Cc1onc(-c2ccccc2)c1C(=O)NCC1COc2ccccc2O1 (stereo not given) | -2.2 | /
COc1ccc2c(c1)CCCN2 | 0.0 | 0.4
O=C1Nc2ccccc2N(O)N1c1ccc(S(=O)(=O)Nc2ccccn2)cc1 | 1.9 | -0.67
CCOc1ccccc1N1CCN(C(=O)c2ccc3c(c2)S(=O)(=O)N=C2CCCCCN23)CC1 | 1.8 | /
Cn1c(CN2CCCC2)nc2cc(NS(=O)(=O)c3ccc(F)cc3)ccc21 | -4.5 | 0.087
CCOc1ccccc1OCCN[C@H](C)Cc1ccc(OC)c(S(N)(=O)=O)c1 | / | -0.23
CC(Sc1nc(N)cc(=O)[nH]1)C(=O)Nc1ccc(S(N)(=O)=O)cc1 (stereo not given) | 3.2 | -0.44
COc1ccc(NC(=O)CN2C(=O)CSCC2=O)cc1 | 0.7 | -1.1
O=C(Nc1csc(Cc2c(Cl)cccc2Cl)n1)NN1CCOCC1 | -1.5 | /
COC(=O)C1C(c2ccccc2)C(C(=O)N2CCOCC2)C1c1ccccc1 (stereo not given) | -2.3 | 1.5

Full records from above. Screens in order: BasE inh, KSHV LANA nucl
`CCOc1ccccc1OCCN[C@H](C)Cc1ccc(OC)c(S(N)(=O)=O)c1` is listed as /, -0.23
`Cc1cccc(NC(=O)CN2N=NC3C(=O)N(c4cccc(Cl)c4)C(=O)C32)c1C` (stereo not given) is listed as 4.1, 0.068
`O=C1COc2ccccc2N1Cc1ccc(OC(F)(F)F)cc1` is listed as 0.6, -1.2
`CN(C)S(=O)(=O)c1ccc(Nc2nc3ccccc3n3nnnc23)cc1` is listed as -0.1, 0.35

(list continues)
compound | BasE inh | KSHV LANA nucl
O=C1c2ccccc2C(=O)N1CCC12CC3CC(CC(C3)C1)C2 | 4.6 | /
O=C(O)c1ccccc1C(=O)N1CCN(C2c3ccccc3-c3ccccc32)CC1 | / | -1.3
CSCC(=O)NCc1ccc(CN2CCCC2)cc1 | -3.2 | /
Nc1ccccc1C(=O)N1CCNC(=O)C1 | 0.2 | -1.6
FC(F)(F)c1ccc(Sc2nnc(-c3cccs3)n2CC2CCCO2)nc1 (stereo not given) | -0.1 | /
CCN(CC)c1ccc(C(=O)N=c2sc3ccccc3n2C)cc1 | 0.3 | -1.2
O=C(c1ccc(COc2ccccc2)o1)N1CCCC(c2nc3ccccc3s2)C1 (stereo not given) | -0.4 | /
CC1CN(S(=O)(=O)c2cc(C(=O)N3CCNC(=O)C3)ccc2Cl)CC(C)O1 (stereo not given) | -0.4 | /
CC(=O)Nc1ccc(S(=O)(=O)N2CCC(NC(=O)Nc3cccc(F)c3)CC2)cc1 | 0.5 | -0.17
O=C(/C=C/c1ccco1)N1CCCSC1=Nc1ccccc1 | -1.7 | /
CCc1[nH]c(C(=O)O)c(C)c1C(=O)OC | 1.1 | /
O=C(Cc1cccs1)Nc1ccc(-c2nnc(-c3ccccc3)o2)cc1 | 2.5 | 0.99
CCCC(=O)Nc1cccn(Cc2ccccc2Br)c1=O | 0.1 | 2.6
COC1CC2CCC(C)C(O)(O2)C(=O)C(=O)N2CCCCC2C(=O)OC(C(C)CC2CCC(O)C(OC)C2)CC(=O)C(C)/C=C(\C)C(O)C(OC)C(=O)C(C)CC(C)/C=C/C=C/C=C/1C (stereo not given) | / | 1.1
O=c1c(Cl)c(N2CCN(c3ccccc3)CC2)cnn1-c1ccccc1 | 2.6 | /
CC1CCCN(S(=O)(=O)c2ccc3ccccc3c2)C1 (stereo not given) | 4.1 | /
CCc1c(O)nc2ccccn2c1=O | 1.5 | /
COc1cccc(OC)c1C(=O)O/N=C(\N)c1cccc(C)c1 | 3.2 | -0.24
COC(=O)c1ccc(C2N=C(c3ccccc3C)NO2)cc1 (stereo not given) | -0.5 | /
CCN(CC)C(=O)n1c(Cc2ccccc2)nc2ccccc21 | 0.9 | -0.46
N#Cc1ccc(-n2cnc3ccccc3c2=O)cc1C#N | 4.7 | -0.2
CCCN(CCC)C(=O)c1cnn(-c2ccc(C)c(C)c2)c1NC(C)=O | 3.3 | -1.2
O=C(c1cc2c(Cl)ccc3c2n1CCO3)N1CCC(N2CCCCC2)CC1 | -1.2 | -0.43
COc1ccccc1N(Cc1csc(-c2ccccc2)n1)S(=O)(=O)c1cccs1 | -1.3 | /
CN(C)c1ccc(/C=N/c2nc3ccccc3o2)cc1 | 6.9 | -2.1
O=C(CSc1nc2ccccc2[nH]1)Nc1ccccc1F | -0.6 | -1.4
O=C1CC(C(=O)N2CCc3ccccc32)CN1c1ccccc1 (stereo not given) | 1.5 | -0.88
COc1ccc(C(=O)CC(C#Cc2ccccc2)CC(=O)c2ccc(OC)cc2)cc1 | 1.6 | /
O=C(CCCSc1nc2ccccc2[nH]1)N1CCN(CC(=O)N2CCCC2)CC1 | 0.9 | /
O=C1c2ccccc2NC2(CCCCC2)N1Cc1ccco1 | -5.6 | 1.9
CCN(CC)C(=O)NCc1ccc(OC)cc1 | 3.1 | -1
c1coc(-c2nc(-c3cccs3)no2)c1 | -3.9 | 0.57
CCOC(=O)c1cccc2ncccc12 | 0.9 | -0.88
c1ccc2oc(CCCc3nc4ccccc4o3)nc2c1 | 0.3 | /
COc1ccc(S(=O)(=O)N2CCN(c3cccc4[nH]ccc34)CC2)cc1OC | 1.5 | -0.68
CN(CCC#N)c1ccc(/C=C(\C#N)C(=O)C(C)(C)C)cc1 | 0.8 | /
S=c1nc[nH]c2c1[nH]c1ccccc12 | 4.6 | -0.75
CSc1ccccc1NC1=NCCC1 | 1.7 | /
CNC(=O)CNC(=O)Nc1ccc(Cl)c(Cl)c1 | -4.5 | /
Cn1ccnc1SCc1cc(=O)c(OC(=O)c2ccccc2)co1 | 1.2 | -1.3

A portion of the results above, for reference:
compound | BasE inh | KSHV LANA nucl
N#Cc1ccc(-n2cnc3ccccc3c2=O)cc1C#N | 4.7 | -0.2
CCCN(CCC)C(=O)c1cnn(-c2ccc(C)c(C)c2)c1NC(C)=O | 3.3 | -1.2
O=C(c1cc2c(Cl)ccc3c2n1CCO3)N1CCC(N2CCCCC2)CC1 | -1.2 | -0.43
COc1ccccc1N(Cc1csc(-c2ccccc2)n1)S(=O)(=O)c1cccs1 | -1.3 | /
CN(C)c1ccc(/C=N/c2nc3ccccc3o2)cc1 | 6.9 | -2.1

(next part)
compound | BasE inh | KSHV LANA nucl
Cc1ccc2c(CC(=O)N3CCc4ccccc43)coc2c1 | -2.5 | 0.83
CCCCn1cnc2c(c1=O)c1nc3ccccc3nc1n2CC1CCCO1 (stereo not given) | -3.6 | 2.5
CC1CC(C(F)F)n2nc(C(=O)O)cc2N1 (stereo not given) | -0.3 | 0.21
Clc1ccc(COc2cccc3cccnc23)cn1 | / | 0.72
Cc1cccc(N2CCN(C(=O)c3ccncc3)CC2C)c1 (stereo not given) | 0.8 | /
CCS(=O)(=O)Nc1ccc(Cl)cn1 | -2.1 | -1.4
CC(NC(=O)CSc1nnnn1C)c1ccccc1 (stereo not given) | 2.4 | /
CC1(C)CC(=O)C=C(Nc2ccc(N3CCOCC3)cc2)C1 | -0.6 | -1.2
CC(C)(C)c1ccc(-c2cc(NS(=O)(=O)c3ccccc3)c(C(N)=O)s2)cc1 | 0.3 | /
CCCCC(=O)Nc1ccc(C(=O)N2CCN(C)CC2)cc1 | -0.5 | 2.9
CNC(=O)c1csc(Cc2c(Cl)sc3ccc(Cl)cc23)n1 | 0.6 | /
CCOc1ccccc1NC(=O)C(NCc1ccco1)c1ccccc1 (stereo not given) | -3.5 | /
CNC(=O)NC(=O)C(C)N1CCN(c2ccccc2)CC1 (stereo not given) | -1.9 | /
N#CC1(NC(=O)Cn2cnc3c(Cl)cc(Cl)cc3c2=O)CCCCC1 | 2.3 | /
CN(c1ccc(O)cc1)S(=O)(=O)c1ccc(Cl)c(C(F)(F)F)c1 | 1.6 | /
CCC(NC(=O)Nc1cc(Cl)c(OC)cc1OC)c1c(-n2cccc2)sc2c1CCN(C)C2 (stereo not given) | 0.6 | 0.93
O=C(CSc1nc2ccccc2c(=O)n1Cc1ccco1)c1ccccc1 | 3.3 | /
CN1CCN(C(=O)C(C(=O)N2CCN(C)CC2)C23CC4CC(CC(C4)C2)C3)CC1 | -1.1 | -0.67
O=C(O)CC1SC(=O)N(Cc2ccccc2)C1=O (stereo not given) | -0.8 | -0.59
CC1(C)Cn2c(nnc2-c2ccccc2)S1 | 0.7 | 0.66
CN1CCN(C(=S)C(=O)NCc2ccccc2)CC1 | 0.2 | -2.1
CC1=CC(=C(C#N)C#N)C=C(C)N1c1cccnc1 | 4.0 | /
CCSc1nc(C)c(CC)c(C)c1C(N)=O | -1.7 | -1.2
CN(C)/C=N/n1cnc2sc3c(c2c1=O)CCCC3 | 2.3 | /
COc1ccc(N2CCN(C=C3C(=O)NC(=O)NC3=O)CC2)cc1 | 2.1 | /
Fc1ccc(CNc2nc3c(c(C(F)(F)F)n2)CCCCC3)cc1 | 0.9 | -0.61
CC1CC(=O)N(c2cc(C(F)(F)F)cc(C(F)(F)F)c2)C1=O (stereo not given) | -0.5 | /
COC(=O)c1cc(-c2ccccc2)sc1NC(=S)Nc1ccn(C)n1 | 0.6 | 0.23
CCc1nn2c(=O)cc(COc3ccccc3C)nc2s1 | -0.1 | 0.86
COc1ccc(OC)c(-c2n[nH]c(C(=O)O)c2C)c1 | 0.3 | -0.81
Cc1ccc(N=C(C#N)C2=C(O)c3ccccc3C2=O)c(Cl)c1 | -4.2 | /
Cc1ccc2c(c1)=C(c1sc(=S)n(CC(=O)O)c1O)C(=O)N=2 | 0.8 | -0.35
O=S(=O)(c1ccccc1)c1nc(N2CCCc3ccccc32)sc1Cl | 0.8 | /
COC(Cn1c(-c2ccccc2)n[nH]c1=S)OC | 1.5 | /
COc1ccc(CN2Cc3ccccc3C2)cc1 | -0.6 | 0.49
CC(=O)Nc1cccc(NC(=O)c2c[nH]c(=O)n(-c3ccccc3)c2=O)c1 | -1.2 | 0.11
CC(/C(O)=C(\C#N)c1nc2ccccc2s1)N1C(=O)c2ccccc2C1=O (stereo not given) | -9.5 | /
CC(C)NS(=O)(=O)c1ccc(N=Cc2c(O)n(C)c(=O)n(C)c2=O)cc1 | 1.6 | /
O=C(NCc1ccc(Cl)cc1)c1ccc2nc[nH]c2c1 | -1.7 | /
COc1ccc(-c2cc(C(=O)N(C)Cc3ccccc3)no2)cc1S(=O)(=O)N1CCOCC1 | -8.2 | 0.9
COC(=O)/C=C1\SC(=Nc2ccc(OC)cc2)NC1=O | -1.6 | -0.026
CSc1nc2cc(Oc3cccc(Cl)c3Cl)c(Cl)cc2[nH]1 | / | -0.01
Cc1ccc(-c2cc(C(F)(F)F)c3c(=O)[nH]c(N)nc3n2)cc1 | 1.4 | /
O=C(O)c1cccc(NCc2cccnc2)c1 | 3.3 | -0.58
O=c1c2c3nc4ccccc4nc3n(C3CCCC3)c2ncn1Cc1ccccc1 | 1.3 | -1.4
CNC(=O)NC1CC(=O)N(c2ccc(OC)cc2)C1 (stereo not given) | 1.1 | -1.1
O=C(NCCc1nc(-c2ccc(Cl)cc2)no1)c1cccs1 | -1.9 | -0.33
COC(=O)c1ccc(NC(=O)CSC2=NC(c3ccccc3)CC(=O)N2)cc1 (stereo not given) | -0.5 | -0.14
CCC(=O)Nc1ccc(-c2nn3c(CC)nnc3s2)cc1 | -1.2 | -0.13
CCCC(CCC)=NNc1ncnc2sc(C)c(C)c12 | 2.0 | /
O=C(Cn1nnc2ccccc2c1=O)NC1CCCCC1 | -0.5 | 1.2
O=C(COc1ccc2ccc(=O)oc2c1)N1CCOCC1 | 2.5 | /
CCC(C)NC(=O)c1ccc(NC(=O)C2=CSCCO2)cc1 (stereo not given) | 0.4 | -0.4
FC(F)(F)c1cccc(-c2ccc3ccccc3n2)c1 | / | -1.1
COc1ccc2nc(-c3ccco3)c(-c3ccco3)nc2c1 | 9.0 | -0.5
CCOC(=O)c1[nH]c(I)c(C(=O)OCC)c1C | -3.7 | 1.3
CC(NC(=O)c1ccco1)C(=O)N(C)Cc1ccc(C(F)(F)F)cc1 (stereo not given) | 0.0 | /
COC(=O)c1ccc(C2C3C(=CC4CCC3N4C)C(C#N)=C(N)C2(C#N)C#N)cc1 (stereo not given) | 1.5 | -0.85
CC(C)n1c(-c2nonc2N)nc2ccccc21 | -1.2 | 0.61
CCOC(=O)C1CCN(C(=O)c2nn(C)c(=O)c3ccccc23)CC1 | 1.5 | /
COc1ccc(CCC(=O)NNc2ccccc2)cc1 | -1.8 | /

Not all compounds are listed; count on the stated rates, not on these rows.
